KCNQ2 enhance: enhances the rat KCNQ2 potassium channel. O88943. CHO-K1 KCNQ2, FluxOR thallium flux fluorescence; active compounds read high. B-score at 10 µM. actives 0.54% (n = 310,000);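 active means fluorescence ratio B-score at least 3 SD of library B-scores, with initial fluorescence B-score within 3 SD, cut at about 5.3 in these data; same plate scores as AID 2156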;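 further: B-score of peak minus minimum over baseline fluorescence ratio after K+ and Tl+ stimulus; positive B-score means potentiation of KCNQ2 with more thallium influx and brighter signal; only the inactives scoring about 0 or higher are listed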
Target sequence (O88943 whole entry, looked up): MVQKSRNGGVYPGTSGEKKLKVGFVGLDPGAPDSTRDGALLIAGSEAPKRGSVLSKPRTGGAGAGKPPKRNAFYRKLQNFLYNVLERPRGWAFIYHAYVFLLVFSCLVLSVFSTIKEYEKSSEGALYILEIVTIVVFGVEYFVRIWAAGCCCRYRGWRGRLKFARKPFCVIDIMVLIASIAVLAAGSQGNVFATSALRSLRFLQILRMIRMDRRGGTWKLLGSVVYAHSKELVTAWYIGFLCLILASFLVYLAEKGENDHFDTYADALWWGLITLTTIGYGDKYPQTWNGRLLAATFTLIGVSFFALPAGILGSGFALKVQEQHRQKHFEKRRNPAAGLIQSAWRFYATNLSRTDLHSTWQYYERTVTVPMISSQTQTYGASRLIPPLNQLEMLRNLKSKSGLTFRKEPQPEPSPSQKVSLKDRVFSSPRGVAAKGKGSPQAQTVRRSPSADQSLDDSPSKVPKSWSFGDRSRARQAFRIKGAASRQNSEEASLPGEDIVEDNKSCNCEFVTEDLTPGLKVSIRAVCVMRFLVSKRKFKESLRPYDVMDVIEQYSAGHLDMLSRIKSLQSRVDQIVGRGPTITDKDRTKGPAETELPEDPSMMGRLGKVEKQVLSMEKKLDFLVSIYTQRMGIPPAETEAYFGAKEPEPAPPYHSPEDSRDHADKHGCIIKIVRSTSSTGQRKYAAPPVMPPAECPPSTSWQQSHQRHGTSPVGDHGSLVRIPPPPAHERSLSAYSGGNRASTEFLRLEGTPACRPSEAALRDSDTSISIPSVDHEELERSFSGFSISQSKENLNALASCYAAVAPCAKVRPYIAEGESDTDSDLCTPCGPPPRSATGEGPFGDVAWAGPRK
KCNQ2 enhance baseline: second read-out of KCNQ2 enhance, no call of its own (marks repeat the call); B-score; compound at 10 µM; measured here: initial fluorescence intensity artifact check;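 brightness before thallium and not channel activity; 0 = typical well and far values either way flag optical interference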
* = called active by the depositor.

How did NC(=O)c1ccc(NC(=O)COc2ccc([N+](=O)[O-])cc2Cl)cc1 do in these assays?
KCNQ2 enhance: 0.93; KCNQ2 enhance baseline: 2.97

What do the screens show for `COc1ccccc1C(=O)Nc1nnc(-c2ccc(Cl)cc2)o1`?
KCNQ2 enhance: 0.5; KCNQ2 enhance baseline: 0.8

How did Cc1cccc(NC(=O)C2CC(=O)NC(Nc3nc4ccccc4s3)=N2)c1 (centres undefined) do in these assays?
KCNQ2 enhance: 1.07; KCNQ2 enhance baseline: -1.39

What do the screens show for `O=C(N/N=C/c1ccc([N+](=O)[O-])o1)c1cccc(S(=O)(=O)N2CCOCC2)c1`?
KCNQ2 enhance: 1.23; KCNQ2 enhance baseline: 1.15

Results for O=C(COC(=O)C1(c2ccc(F)cc2)CCCC1)N1CCN(C(=O)c2ccco2)CC1 ?
KCNQ2 enhance: 0.54; KCNQ2 enhance baseline: -1.59

Results for O=c1[nH][nH]c(=O)c2cc(N3CCCC3)ccc12 ?
KCNQ2 enhance: 2.24; KCNQ2 enhance baseline: -0.39

Results for O=C(NCc1ccco1)C(c1ccccc1F)N(Cc1cccnc1)C(=O)Cn1nnc2ccccc21 (centres undefined) ?
KCNQ2 enhance: 0.9; KCNQ2 enhance baseline: -0.09

How did CC(C)(C)c1ccc(/C=N/NC(=S)Nc2cccnc2)cc1 do in these assays?
KCNQ2 enhance: 0.17; KCNQ2 enhance baseline: -0.78

Results for CC(C)(Oc1ccc(Cl)cc1)C(=O)NC1CC1 ?
KCNQ2 enhance: 2.38; KCNQ2 enhance baseline: 0.39

How did O=C(Cc1ccc(Cl)c(Cl)c1)Nc1ccc2[nH]c(=O)[nH]c2c1 do in these assays?
KCNQ2 enhance: 1.45; KCNQ2 enhance baseline: 1.27

Results for Cc1nc2ncc(Br)cc2[nH]1 ?
KCNQ2 enhance: 0.67; KCNQ2 enhance baseline: 0.07

How did S=C(NCCCN1CCOCC1)NC1CC1 do in these assays?
KCNQ2 enhance: 0.18; KCNQ2 enhance baseline: 0.61

What do the screens show for `Cc1ccccc1C(=O)NNC(=O)/C=C\C(=O)O`?
KCNQ2 enhance: 0.86; KCNQ2 enhance baseline: 0.76

How did COc1ccc(N2CCN(S(=O)(=O)c3ccc(OC)c(C(=O)N4CCCC4)c3)CC2)cc1 do in these assays?
KCNQ2 enhance: 2.25; KCNQ2 enhance baseline: -0.11

What do the screens show for `COc1ccc(/C=N/NC(=O)CNc2n[nH]c(=O)[nH]c2=O)cc1OC`?
KCNQ2 enhance: 0.25; KCNQ2 enhance baseline: -0.88

Results for Cc1ccc(Cn2c(N)c(S(=O)(=O)c3cccs3)c3nc4ccccc4nc32)cc1 ?
KCNQ2 enhance: 1.13; KCNQ2 enhance baseline: -1.93

Results for Cn1ncn2c(=O)c3c(nc12)-c1ccccc1CC31CCCC1 ?
KCNQ2 enhance: 0.51; KCNQ2 enhance baseline: 0.01

How did Cc1ccc2c3c1C1(C(=O)N3C(C)(C)CC2C)C(C#N)=C(N)Oc2cc(O)ccc21 (centres undefined) do in these assays?
KCNQ2 enhance: 0.41; KCNQ2 enhance baseline: 0.02

How did Cc1cc(C)cc(NC(=S)NCc2cccnc2)c1 do in these assays?
KCNQ2 enhance: 0.39; KCNQ2 enhance baseline: 0.32

Results for COc1ccc(CC(NC(C)=O)C(=O)NC2CCN(C(=O)C3CCCCC3)CC2)cc1OC (centres undefined) ?
KCNQ2 enhance: 0.77; KCNQ2 enhance baseline: 2.06

How did CCCCOc1ncnc2c1[nH]c1ccc(F)cc12 do in these assays?
KCNQ2 enhance: 0.85; KCNQ2 enhance baseline: 1

What do the screens show for `COc1ccc2nc3oc(C(=O)N4CCN(c5ccccc5F)CC4)cc3cc2c1`?
KCNQ2 enhance: 0.14; KCNQ2 enhance baseline: -1.34

How did CCn1cc(C(=O)N[C@H](C(=O)O)C(C)C)c(=O)c2cc3c(cc21)OCO3 do in these assays?
KCNQ2 enhance: 0.17; KCNQ2 enhance baseline: -0.07

What do the screens show for `Cn1nnnc1SCCNC(=O)C1CCC(=O)N(Cc2ccccc2F)C1` (centres undefined)?
KCNQ2 enhance: 0.36; KCNQ2 enhance baseline: -2.06

Results for Cc1c(C(=O)O)c(=S)sn1CCOc1ccccc1 ?
KCNQ2 enhance: 1.6; KCNQ2 enhance baseline: 0.23

What do the screens show for `CN=C(NC)SC1CC(=O)N(c2ccccc2)C1=O` (centres undefined)?
KCNQ2 enhance: 0.94; KCNQ2 enhance baseline: -0.14

How did CSc1ccc(/C=C2\C(=N)N3N=C(CC(=O)N4CCOCC4)SC3=NC2=O)cc1 do in these assays?
KCNQ2 enhance: 0.81; KCNQ2 enhance baseline: -0.74

How did CCOC(=O)c1ccc(NC(=O)Cn2cccc2)cc1 do in these assays?
KCNQ2 enhance: 2.5; KCNQ2 enhance baseline: -0.33

Results for COc1ccc2oc3ccc(OC)cc3c(=O)c2c1 ?
KCNQ2 enhance: 1.3; KCNQ2 enhance baseline: -0.04

Results for O=C(COC(=O)/C=C/c1cccc([N+](=O)[O-])c1)NCCCN1CCCC1=O ?
KCNQ2 enhance: 0.07; KCNQ2 enhance baseline: -0.44

Results for O=C(NCc1cccnc1)/C(=C/c1ccccc1)NC(=O)c1ccccc1 ?
KCNQ2 enhance: 0.2; KCNQ2 enhance baseline: -0.31

Results for Cc1sc2ncn(CC(=O)N3CCCCC3)c(=O)c2c1C ?
KCNQ2 enhance: 1.29; KCNQ2 enhance baseline: 0.58

How did O=C(NC1CCCC1)c1cccc(Oc2ccccc2)c1 do in these assays?
KCNQ2 enhance: 1.05; KCNQ2 enhance baseline: 1.06

How did Cc1ccccc1-n1c2nc(=O)n(C)c(=O)c-2cc2ccccc21 do in these assays?
KCNQ2 enhance: 4.66; KCNQ2 enhance baseline: 2.85

Results for Cc1ccc(NC(=O)CN2C(=O)S/C(=C\c3cc(C)n(C)c3C)C2=O)cc1 ?
KCNQ2 enhance: 0.64; KCNQ2 enhance baseline: -0.5

How did CCCOc1ccc(N2C(=O)CC(N3CCN(C(=O)c4ccco4)CC3)C2=O)cc1 (centres undefined) do in these assays?
KCNQ2 enhance: 2.54; KCNQ2 enhance baseline: -0.33

Results for O=C(O)CC(NC(=O)CC(c1ccccc1)c1ccccc1)c1cccc([N+](=O)[O-])c1 (centres undefined) ?
KCNQ2 enhance: 0.01; KCNQ2 enhance baseline: 0.91

What do the screens show for `CCOC(=O)C1=C(C)N=c2s/c(=C\c3ccc(OCC(=O)O)cc3)c(=O)n2C1c1ccccc1` (centres undefined)?
KCNQ2 enhance: 0.66; KCNQ2 enhance baseline: 0.51

What do the screens show for `COc1cccc(NC(=O)CCSc2ccc(C)cc2)c1`?
KCNQ2 enhance: 2.24; KCNQ2 enhance baseline: 0.6

Results for CCCOC(=O)c1ccc(NC(=O)c2cccc(S(=O)(=O)N3CCN(C(C)=O)CC3)c2)cc1 ?
KCNQ2 enhance: 1.5; KCNQ2 enhance baseline: -0.1

Sorted by length of the SMILES (high to low): part of the list above
Results for CCCOC(=O)c1ccc(NC(=O)c2cccc(S(=O)(=O)N3CCN(C(C)=O)CC3)c2)cc1 ?
KCNQ2 enhance: 1.5; KCNQ2 enhance baseline: -0.1

Results for Cc1ccc(NC(=O)CN2C(=O)S/C(=C\c3cc(C)n(C)c3C)C2=O)cc1 ?
KCNQ2 enhance: 0.64; KCNQ2 enhance baseline: -0.5

Results for O=C(NCc1cccnc1)/C(=C/c1ccccc1)NC(=O)c1ccccc1 ?
KCNQ2 enhance: 0.2; KCNQ2 enhance baseline: -0.31

How did Cc1ccccc1-n1c2nc(=O)n(C)c(=O)c-2cc2ccccc21 do in these assays?
KCNQ2 enhance: 4.66; KCNQ2 enhance baseline: 2.85

Results for Cc1sc2ncn(CC(=O)N3CCCCC3)c(=O)c2c1C ?
KCNQ2 enhance: 1.29; KCNQ2 enhance baseline: 0.58

How did O=C(NC1CCCC1)c1cccc(Oc2ccccc2)c1 do in these assays?
KCNQ2 enhance: 1.05; KCNQ2 enhance baseline: 1.06

Further entries
What do the screens show for `COC(CNC(=O)C1CCCN(S(=O)(=O)c2ccc3c(c2)oc(=O)n3C)C1)OC` (centres undefined)?
KCNQ2 enhance: 0.53; KCNQ2 enhance baseline: -1.86

How did CCc1cccc(CC)c1NC(=O)CCCSc1nc2ccccc2s1 do in these assays?
KCNQ2 enhance: 3.44; KCNQ2 enhance baseline: 0.15

How did CCOC(=O)N1CCN(C(=O)Cn2nc(C)c3sc4ccccc4c3c2=O)CC1 do in these assays?
KCNQ2 enhance: 1.54; KCNQ2 enhance baseline: -0.02

How did Cc1cccc2c1cnn2C(=O)CCC(=O)NCc1ccc(F)cc1 do in these assays?
KCNQ2 enhance: 0.74; KCNQ2 enhance baseline: -0.87

How did O=C1c2ccccc2C(=O)N1OCc1ccccc1 do in these assays?
KCNQ2 enhance: 0.4; KCNQ2 enhance baseline: 0.11

What do the screens show for `O=c1oc2ccccc2cc1-c1ccccc1`?
KCNQ2 enhance: 1.21; KCNQ2 enhance baseline: 0.93

Results for C#CCOCCOCCOCCNc1nc(N2CCN(C(=O)[C@H]([C@@H](C)CC)n3cc([C@@H](N)CO)nn3)CC2)nc(N2CCN(C(=O)[C@H](Cc3ccc(O)cc3)n3cc([C@@H](N)C(C)CC)nn3)CC2)n1 (some centres undefined) ?
KCNQ2 enhance: 1.03; KCNQ2 enhance baseline: 1.67

What do the screens show for `Cc1ccc(S(=O)(=O)Nc2ccc(Cl)cc2)cc1NC(=O)Cn1cnc2c1c(=O)n(C)c(=O)n2C`?
KCNQ2 enhance: 0.45; KCNQ2 enhance baseline: 0

How did CCOCCOC(=O)c1[nH]c2c(c1C)C(=O)CC(c1ccc(N(C)C)cc1)C2 (centres undefined) do in these assays?
KCNQ2 enhance: 1.14; KCNQ2 enhance baseline: -1.29

How did COc1ccc(OCC(O)CN2CCCCC2)cc1 (centres undefined) do in these assays?
KCNQ2 enhance: 0.13; KCNQ2 enhance baseline: 1.09

Quoted at random: two entries already listed, in no set order.
What do the screens show for `Cc1ccc(S(=O)(=O)Nc2ccc(Cl)cc2)cc1NC(=O)Cn1cnc2c1c(=O)n(C)c(=O)n2C`?
KCNQ2 enhance: 0.45; KCNQ2 enhance baseline: 0

What do the screens show for `O=c1oc2ccccc2cc1-c1ccccc1`?
KCNQ2 enhance: 1.21; KCNQ2 enhance baseline: 0.93

Other entries.
What do the screens show for `O=C(NCC(=O)N(Cc1ccco1)C(C(=O)NC1CCCCC1)c1cccnc1)c1ccco1` (centres undefined)?
KCNQ2 enhance: 0.67; KCNQ2 enhance baseline: -1.62

What do the screens show for `CN(C)Cc1nnnn1-c1cccc(-n2nnnc2CN(C)C)c1`?
KCNQ2 enhance: 0.21; KCNQ2 enhance baseline: 1.41

Results for Cc1ccc(NC(=O)CCSCCc2ccccn2)cc1 ?
KCNQ2 enhance: 0.02; KCNQ2 enhance baseline: 0.05

What do the screens show for `COc1ccc(N2CCN(C(=O)c3ccc(CNS(=O)(=O)c4cccc(OC)c4)cc3)CC2)cc1`?
KCNQ2 enhance: 0.75; KCNQ2 enhance baseline: -1.66

Results for CCCCCCC(=O)N/N=C/c1ccc(Br)cc1 ?
KCNQ2 enhance: 0.29; KCNQ2 enhance baseline: 0.63

How did Cc1ccc(-c2nnc(SCC(=O)N/N=C/c3ccccc3C(=O)O)n2-c2ccc(Cl)cc2)cc1 do in these assays?
KCNQ2 enhance: 2.06; KCNQ2 enhance baseline: -0.23

How did O=C(Nc1cccc(F)c1)c1ccccc1 do in these assays?
KCNQ2 enhance: 0.26; KCNQ2 enhance baseline: -1.74

How did CC1=NN(C(C#N)c2ccc([N+](=O)[O-])cc2)C(C)(C)C1 (centres undefined) do in these assays?
KCNQ2 enhance: 1.83; KCNQ2 enhance baseline: 0.13

How did Cc1ccc(N2CC(NC(=O)C3CC3)CC2=O)cc1 (centres undefined) do in these assays?
KCNQ2 enhance: 0.66; KCNQ2 enhance baseline: -0.05

Results for O=C(Nc1cccc(NC(=O)c2ccccc2Cl)c1)c1cccs1 ?
KCNQ2 enhance: 2.73; KCNQ2 enhance baseline: -1.01

Results for O=C1CCCC2=C1C1(CCCCC1)N=C(Nc1nc3ccccc3s1)N2 ?
KCNQ2 enhance: 0.72; KCNQ2 enhance baseline: 1.01

What do the screens show for `COc1ccc(NS(=O)(=O)c2ccc(O)c(C(=O)OCC(=O)NC3CCCCC3)c2)cc1`?
KCNQ2 enhance: 1.17; KCNQ2 enhance baseline: 0.25

How did O=C(CCn1cnnn1)N1CCCC(Nc2ccc(F)cc2)C1 (centres undefined) do in these assays?
KCNQ2 enhance: 1.47; KCNQ2 enhance baseline: 0.08

What do the screens show for `O=C(Nc1ccc(S(=O)(=O)Nc2ncccn2)cc1)C1COc2ccccc2O1` (centres undefined)?
KCNQ2 enhance: 0.03; KCNQ2 enhance baseline: -0.01

How did COCC(C)(C)COS(N)(=O)=O do in these assays?
KCNQ2 enhance: 0.74; KCNQ2 enhance baseline: -0.8

How did CC1(c2ccccc2)CC(C)(C)N2C(=O)/C(=C3\SC(=S)NC3=O)c3cccc1c32 (centres undefined) do in these assays?
KCNQ2 enhance: 32.5*; KCNQ2 enhance baseline: -1.23*

Results for Cc1ccc(S(=O)(=O)N2CCN(C(=O)CCC(=O)OCC(=O)Nc3cccc(C#N)c3)CC2)cc1 ?
KCNQ2 enhance: 1.44; KCNQ2 enhance baseline: -2.26

Results for O=C(NCCS(=O)(=O)NCc1ccccc1)c1ccc2c(c1)OCO2 ?
KCNQ2 enhance: 0.52; KCNQ2 enhance baseline: -1.62

Results for C/C(=N/NC(=O)Cc1cccn1C)c1ccccc1 ?
KCNQ2 enhance: 0.35; KCNQ2 enhance baseline: -0.02

How did CCCCN(CC)CCCNC(=O)c1cc2c(=O)n(C)c3ccccc3c2n1C do in these assays?
KCNQ2 enhance: 1.57; KCNQ2 enhance baseline: -1.55

How did COc1ccc2[nH]c3c(=O)n(CCCCC(=O)N4CCC(C(N)=O)CC4)c(=S)[nH]c3c2c1 do in these assays?
KCNQ2 enhance: 0.17; KCNQ2 enhance baseline: 0.05

Compound activity as filed in PubChem.

The list is partial; count on the stated rates, not on these rows.
